Calb FLC: C. albicans growth inhibition with fluconazole, primary screen, CaCi-2 strain, Alamar Blue fluorescence; C. albicans CaCi-2 (fluconazole-resistant clinical isolate) + fluconazole, 48 h; growth inhibition, % (test concentration not listed); 300,000 tested, 0.57% active;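 active = most replicates above 75%; inconclusive = exactly half above 75%; inactive = most below 75%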;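 also: all wells also contain fluconazole at 8 µg/ml as a sub-toxic cotreatment; 0% = median of DMSO wells and 100% = median of geldanamycin control wells; wells of about 8 µL received 7.5 nL stock; the first replicate is given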
Vif A3G: inhibitors of Vif binding to APOBEC3G peptide, primary screen, biochemical, TR-FRET, GST-Vif 1-94, biotin-A3G peptide, dose response retest (AID 1117319). TR-FRET GST-Vif / biotin-A3G peptide binding; higher % means a stronger effect; test concentration not given here; strong numbers were not always called active. 260,000 tested, 0.57% active. one-dose inhibition, %; IC50 in µM for titrated hits. Virion infectivity factor (Human immunodeficiency virus type 1 group M subtype B (isolate …;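 active = above the screen mean plus three standard deviations and confirmed in dose response; inconclusive = results disagree or hit not tested in dose response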;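 also: Vif residues 1-94 fused to GST binding biotinylated APOBEC3G peptide 110-148; 0% = full assay without inhibitor and 100% = GST in place of GST-Vif; retest series ran down from 100 µM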
MLL AF4-AF9 inh: inhibitors of AF4 peptide binding to AF9, primary screen, biochemical, AlphaScreen, biotin-AF4 peptide, FLAG-AF9, single point | Protein AF-9 (Homo sapiens), P42568 | AID 651704, 2012 | inhibition, % at 10 µM | 350,000 tested, 0.47% active;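 active = every replicate reaching a set inhibition limit, whatever the replicate mean, cut at about 25% in these data; inconclusive = mean inhibition reaches that limit but some replicates miss it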;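 also: 0% = plate neutral control median and 100% = total signal loss; the record names both 10 and 1 µM as test concentration; the first replicate is given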
RanGTP-Imp inh: inhibitors of RanGTP-importin-beta interaction, primary screen, biochemical, FRET, CFP-Ran, YFP-importin-beta, homogeneous; cell-free CFP-Ran/YFP-importin-beta FRET ratio; inhibition, % (test concentration not listed); 300,000 tested, 1.1% active; AID 2216, 2009;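 active = most replicates above 15%; inconclusive = exactly half above 15%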;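 also: 0% = DMSO wells and 100% = Ran loaded with GDP instead of GTP; wells of about 40 µL received 100 nL stock; the first replicate is given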
A1 inh: caspase 3/7 activation in MEF A1-2A-BIM cells, primary screen, A1 inhibitor project, cell-based, luminescence, HTS | Caspase-Glo 3/7 luminescence, 3 h; percent of clofoctol response, vehicle zero | caspase activation, % (concentration not given with the values) | 330,000 tested, 0.066% active;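 active = over half of replicate activation scores above 10%, or exactly half above 10 with the replicate mean above 10; inconclusive = replicate mean below 10 yet half the replicates above 10; inactive = over half of replicates below 10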;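 also: wells of about 30 µL received 50 nL stock; many hits fall short of the cut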
Beta cell apopt: inhibitors of cytokine-induced beta cell apoptosis, primary screen, luminescence | 300,000 tested, 0.8% active | AID 435005, 2010 | INS-1E cytokine-induced death, ATP luminescence, 48 h; percent of positive-control rescue, neutral wells zero | protection from apoptosis, % (test concentration not listed);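 active = all replicates at 75% or more, or half of them and the mean; inconclusive = half reach 75% but not the mean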;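 also: 0% = cytokine-treated negative control wells and 100% = positive control rescue; higher means more ATP so stronger rescue from cytokine killing; wells of about 40 µL received 100 nL stock; the first replicate is given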
T cruzi repl: inhibitors of intracellular T. cruzi growth, primary screen, luminescence, NIH3T3 host cells | T. cruzi beta-gal in NIH3T3, 90 h | inhibition, % (concentration not given with the values) | 300,000 tested, 1.4% active;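 active = mean inhibition across valid replicates above about 55%, limit read from the data; inconclusive = mean below that limit but half or more replicates reach it; inactive = mean below it, under half of replicates reach it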;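 also: signal also drops with host cell toxicity which is not excluded here; 0% = plate median of DMSO wells and 100% = zero luminescence signal; higher percent means less beta-gal luminescence so fewer parasites; stock transfer was 50 nL into about 50 µL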
LANA-H2A inh: blockers of LANA interaction with H2A/H2B – biochemical, FP readout, HTS, primary screen. AID 2629, 2010. inhibition, % (test concentration not listed). cell-free LANA-H2A/H2B peptide, fluorescence polarization. 320,000 tested, 0.6% active; in the data active = inhibition mostly above about 10%, no sharp cut-off; inactive = mostly below about 6.7%;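 also: stock transfer was 7.5 nL into about 10 µL; 0% = median of vehicle wells and 100% = median of positive control wells; one replicate is shown; the record names a cut of 25% in any replicate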
Target sequence (Q9QR71 whole entry, looked up): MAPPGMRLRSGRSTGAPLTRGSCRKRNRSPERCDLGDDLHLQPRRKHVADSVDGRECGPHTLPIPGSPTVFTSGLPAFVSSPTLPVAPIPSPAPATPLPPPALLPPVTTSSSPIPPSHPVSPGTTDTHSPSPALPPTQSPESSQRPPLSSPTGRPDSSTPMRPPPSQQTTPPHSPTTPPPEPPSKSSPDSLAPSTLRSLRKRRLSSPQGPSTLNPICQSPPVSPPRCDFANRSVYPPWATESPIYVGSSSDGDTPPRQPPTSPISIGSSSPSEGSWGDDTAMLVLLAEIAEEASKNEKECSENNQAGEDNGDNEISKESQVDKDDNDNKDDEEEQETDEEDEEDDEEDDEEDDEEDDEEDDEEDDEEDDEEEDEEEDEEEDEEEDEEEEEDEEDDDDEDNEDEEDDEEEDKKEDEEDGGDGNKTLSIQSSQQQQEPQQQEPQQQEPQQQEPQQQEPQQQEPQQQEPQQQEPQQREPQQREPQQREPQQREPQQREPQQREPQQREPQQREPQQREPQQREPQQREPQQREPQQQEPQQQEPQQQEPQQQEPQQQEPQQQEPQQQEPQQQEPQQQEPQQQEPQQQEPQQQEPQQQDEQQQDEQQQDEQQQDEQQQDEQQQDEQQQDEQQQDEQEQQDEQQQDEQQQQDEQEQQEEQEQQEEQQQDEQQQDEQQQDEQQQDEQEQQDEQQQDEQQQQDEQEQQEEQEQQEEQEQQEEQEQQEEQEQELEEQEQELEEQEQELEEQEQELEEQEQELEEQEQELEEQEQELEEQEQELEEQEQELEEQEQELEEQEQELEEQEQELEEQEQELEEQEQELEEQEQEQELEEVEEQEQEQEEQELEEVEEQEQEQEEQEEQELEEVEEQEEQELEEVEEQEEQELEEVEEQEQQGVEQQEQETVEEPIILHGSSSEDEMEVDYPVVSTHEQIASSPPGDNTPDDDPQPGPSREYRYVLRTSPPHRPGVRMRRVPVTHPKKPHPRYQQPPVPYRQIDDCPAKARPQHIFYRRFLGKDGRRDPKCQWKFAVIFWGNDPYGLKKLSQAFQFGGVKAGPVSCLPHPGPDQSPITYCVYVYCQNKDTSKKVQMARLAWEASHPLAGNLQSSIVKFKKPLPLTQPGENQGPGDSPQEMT
An asterisk follows results filed as active; ? = inconclusive; nt = no result given; & = joins results of further samples.

SMILES	Calb FLC	Vif A3G	MLL AF4-AF9 inh	RanGTP-Imp inh	A1 inh	Beta cell apopt	T cruzi repl	LANA-H2A inh
O=C(c1cccc(F)c1)N1CCN(c2ccc([N+](=O)[O-])c3cccnc23)CC1	-31	nt	1.3	0.2	-0.3	8	3	-0.1
O=C(Nc1ccc(NC(=O)c2cccnc2Cl)cc1)c1cccc(Cl)c1	3	nt	-8.3	0.8	-0.2	1	1	1.3
NC(=S)N/N=C/c1ccccc1OCc1cccc(Cl)c1	10	10%	nt	-2.4	0.6	25	62*	-1.6
Cc1ccc(NC(=S)N(Cc2cccs2)Cc2cc3cccc(C)c3[nH]c2=O)cc1	-6	1%	nt	-1.8	-0.3	-1	9	-1.7
COC(=O)C1=C(C)NC(=O)CC1c1ccc(C(=O)OC)cc1 (stereo not drawn)	14	-2%	nt	-13	-0.3	-3	-8	-2.6
COc1ccc(-c2nc(CN3CCN(Cc4cccc(Cl)c4)CC3)c(C)o2)cc1	0	nt	12	6.2	-0.3	-3	56*	1.4
Cc1ccc(-c2ccc(/C=N/NC(=O)CN3CCOCC3)o2)cc1[N+](=O)[O-]	13	10%	-2.7	1.6	0.0	-4	-11	-0.4
O=C(CNc1ccc(Br)cc1)Nc1cccc(S(=O)(=O)N2CCCC2)c1	nt	-14%	2.3	nt	0.0	2	nt	0.8
O=C(O)c1cn(-c2ccc(F)c(F)c2)c2c(F)c(F)c(F)c(F)c2c1=O	-1	?	nt	6.5	-0.2	-3	-6	-9.9
CC(C)Cn1c(N)c(C(=O)COC(=O)c2ccc(F)cc2)c(=O)n(C)c1=O	-35	16%	0.2	1.1	0.1	3	-9	3.1
COc1cccc(-c2nc(-c3ccc(Br)o3)no2)c1	-21	1%	12	2.1	-5.8	1	0	2.9
CNC(=O)CSc1nc2ccccc2c(=O)n1-c1cc(OC)ccc1OC	-3	?	-2.0	-0.5	-0.2	-10	-16	-6.5
COc1cc(OC)c(OC)cc1/C=N/NC(=O)c1ccc(=O)n(C)c1	2	nt	nt	10	1.2	nt	8	6.1
COc1cccc2cc(/C(=N/O)c3ccccc3)oc12	42	-7%	8.4	-0.2	1.2	3	-4	1.9
O=C1CNC(=O)/C1=C\N1CCCCC1	-15	3%	5.8	0.9	-0.2	-1	-8	-3.2
Cc1noc(C)c1COc1ccc(C(=O)OCC(=O)Nc2c(C)n(C)n(-c3ccccc3)c2=O)cc1	0	3%	-1.3	1.9	-0.7	3	-7	4.4
O=C(NCc1ccncc1)C(=O)NCc1ccco1	-10	-1%	0.9	-1.0	0.4	0	-19	3.7
CCOC(=O)CC(=O)CSc1ncnc2c1nnn2-c1ccc(F)cc1	38	1%	-1.9	-0.3	-1.1	1	-3	0.0
CCCCCCCC[n+]1cccc(C(=O)N2c3c(nc(N)[nH]c3=O)NC(C)C2C)c1 (stereo not drawn)	-1	6%	nt	5.9	2.3	-2	-17	-1.6
CCCn1c(SCC(=O)Nc2cc(S(=O)(=O)N3CCOCC3)ccc2OC)n[nH]c1=O	-17	1%	-6.2	4.0	0.2	2	-4	-5.1
COCc1cc(=O)[nH]c(/N=C(\N)Nc2ccc(Oc3ccccc3)cc2)n1	0	-1%&27%	-3.4	-5.3	-0.8	-6	-18	-2.5&-26
Cc1ccc(C)n1-c1nccc(-c2ccco2)n1	-3	0%	0.7	13	0.4	-2	3	nt
O=C(NNS(=O)(=O)c1cc(Cl)cc(Cl)c1)c1sccc1-n1cccc1	51	6%	nt	-2.2	-0.1	-8	-22	3.6
O=S(=O)(c1ccccc1)c1nnn2c1nc(NC1CCN(Cc3ccccc3)CC1)c1ccccc12	-3	nt	-1.7	5.7	0.2	24	30	2.6
COc1ccc(N=Nc2ccc(O)c3ncccc23)cc1	3	nt	nt	1.6	-2.1	104*	46	-6.5
SMILES	Calb FLC	Vif A3G	MLL AF4-AF9 inh	RanGTP-Imp inh	A1 inh	Beta cell apopt	T cruzi repl	LANA-H2A inh
O=C(CNC(=O)c1ccc(-c2ccccc2)cc1)Nc1cccc(CO)c1	nt	-8%	-6.2	nt	0.2	-5	nt	0.9
O=C1C2C3c4ccccc4C(c4ccccc43)C2C(=O)N1Cc1ccco1 (stereo not drawn)	-1	4%	nt	-3.3	0.8	2	-2	0.6
CC1CC1C(=O)OCC(=O)Nc1cccc([N+](=O)[O-])c1 (stereo not drawn)	-4	-2%	1.3	0.7	-0.1	3	1	1.5
Cn1c(N)cc(=O)n(Cc2ccccc2)c1=O	13	12%	nt	5.0	1.8	-5	14	-4.9
CCOC(=O)C1CCN(C(=O)C2CCN(S(=O)(=O)c3ccc4c(c3)CC(C)N4C(C)=O)CC2)CC1 (stereo not drawn)	18	nt	-0.9	4.3	-0.1	-3	-8	8.7
COc1ccc(CCNC(=O)Cc2cc(OC)c(OC)cc2Br)cc1OC	18	-2%	0.1	-1.7	0.8	-3	-12	-0.7
COc1ccc(CC2(C)OC(c3ccc(C)c([N+](=O)[O-])c3)=NN2C(C)=O)cc1 (stereo not drawn)	-10	4%	11	-2.8	1.3	5	-1	-4.4
O=C(CSc1nc2ccccc2o1)Nc1ccc(Cl)cc1	-35	10%	nt	0.1	-0.3	-16	-16	2.5
CCCCn1c(N)c(N(CC(C)C)C(=O)c2ccc(-c3ccc([N+](=O)[O-])cc3)o2)c(=O)[nH]c1=O	6	nt	-11	-1.6	-0.1	-4	-1	-1.5
O=C(O)C1CCCN(C(=O)c2cccc3ccccc23)C1 (stereo not drawn)	6	nt	-3.9	-0.5	0.3	-4	-9	-3.5
CCOC(=O)c1ccccc1N1C(=O)C2Sc3[nH]c(=O)sc3C(/C=C/c3ccccc3)C2C1=O (stereo not drawn)	5	10%	6.1	-4.6	-0.1	-5	-10	8.8
CCc1ccccc1NC(=O)C1CCCN(c2ncnc3onc(-c4ccc(F)cc4)c23)C1 (stereo not drawn)	2	nt	-4.1	-0.2	0.6	5	2	0.2
Cc1c(Cl)cnc(NC(=O)COC(=O)CNC(=O)c2ccccc2)c1Cl	nt	nt	0.2	nt	0.8	1	nt	-6.9
S=C(Nc1ccc(Oc2ccccc2)cc1)NC1CCCCC1	0	66%	nt	-3.7	-0.2	-1	-31	-6.5
Cc1cc(Nc2ccc(F)c(F)c2)nc(-c2ccccc2O)n1	-6	1%	-1.4	0.0	0.1	9	30	-2.3
Cc1nn(-c2ccccc2)c(C)c1NC(=O)c1cccs1	0	?	nt	?	-0.7	-4	-2	2.1
Cc1ccc(NC(=O)C2=COCCO2)cc1S(=O)(=O)N1CCOCC1	nt	nt	1.7	nt	-0.2	-7	nt	0.5
FC(F)(F)c1nnc2n1N=C(c1ccccc1)CS2	-3	0%	1.0	1.2	0.0	-2	-4	-7.5
CCOc1ccccc1NC(=O)COc1cccnc1[N+](=O)[O-]	nt	-1%	0.0	nt	-0.7	-1	nt	-1.2
CC1=C(C(=O)N2CCOCC2)C(c2ccc(Cl)cc2)NC(=S)N1 (stereo not drawn)	nt	10%	-3.4	nt	0.3	5	-10	-1.6
CCCCC1=CC2=C(c3ccco3)C(=O)C(C)(OC(=O)c3ccc(OC)cc3)C(=O)C2=CN1c1ccccc1 (stereo not drawn)	20	?	nt	-11	0.8	-21	11	-0.5
COCCCn1c(C)nnc1SCC(=O)NCc1ccco1	0	10%	nt	0.5	0.5	-2	-6	2.2
CCN(CC)c1ccc(NC(=O)CN2C(=O)NC3(CCc4ccccc43)C2=O)cc1 (stereo not drawn)	nt	-3%	20	nt	0.5	0	nt	-8.0
Cc1ccc(NC(=O)NC2CCCCC2)cc1S(=O)(=O)N1CCOCC1	-4	-4%	-0.3	-2.5	-0.2	0	-1	3.5
COc1ccc(C(=O)NCCCOC(C)C)cc1OC1CCN(C(C)=O)CC1	4	2%	-1.4	1.7	0.1	1	-6	-3.8
O=C(COC(=O)c1cccnc1Cl)Nc1cc(S(=O)(=O)N2CCOCC2)ccc1Cl	nt	nt	-0.7	nt	-0.9	-2	nt	0.3
O=C(Nc1ccccn1)C1CCCN1S(=O)(=O)c1ccc(Cl)cc1 (stereo not drawn)	-2	-1%	-0.9	2.6	-0.9	3	-4	-0.2

4 compounds from above, showing only A1 inh and T cruzi repl.
molecule	A1 inh	T cruzi repl
Cc1ccc(NC(=O)C2=COCCO2)cc1S(=O)(=O)N1CCOCC1	-0.2	nt
FC(F)(F)c1nnc2n1N=C(c1ccccc1)CS2	0.0	-4
CCOc1ccccc1NC(=O)COc1cccnc1[N+](=O)[O-]	-0.7	nt
CC1=C(C(=O)N2CCOCC2)C(c2ccc(Cl)cc2)NC(=S)N1 (stereo not drawn)	0.3	-10

Reprinted at random: six records from the list.
SMILES	Calb FLC	Vif A3G	MLL AF4-AF9 inh	RanGTP-Imp inh	A1 inh	Beta cell apopt	T cruzi repl	LANA-H2A inh
O=C(CNC(=O)c1ccc(-c2ccccc2)cc1)Nc1cccc(CO)c1	nt	-8%	-6.2	nt	0.2	-5	nt	0.9
CCc1ccccc1NC(=O)C1CCCN(c2ncnc3onc(-c4ccc(F)cc4)c23)C1 (stereo not drawn)	2	nt	-4.1	-0.2	0.6	5	2	0.2
CCOC(=O)C1CCN(C(=O)C2CCN(S(=O)(=O)c3ccc4c(c3)CC(C)N4C(C)=O)CC2)CC1 (stereo not drawn)	18	nt	-0.9	4.3	-0.1	-3	-8	8.7
Cc1cc(Nc2ccc(F)c(F)c2)nc(-c2ccccc2O)n1	-6	1%	-1.4	0.0	0.1	9	30	-2.3
CC1CC1C(=O)OCC(=O)Nc1cccc([N+](=O)[O-])c1 (stereo not drawn)	-4	-2%	1.3	0.7	-0.1	3	1	1.5
CCCCn1c(N)c(N(CC(C)C)C(=O)c2ccc(-c3ccc([N+](=O)[O-])cc3)o2)c(=O)[nH]c1=O	6	nt	-11	-1.6	-0.1	-4	-1	-1.5

Rows were taken by chance; any-hit rate near 4.3%.
